RBBP9 inh – human RBBP9 hydrolase inhibition; recombinant RBBP9, FP-Rh probe fluorescence polarization; inhibition, % at 7.94 µM; hit rate 0.2% among 220,000; AID 1515;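 active means inhibition above the campaign mean of all tested compounds plus 3 SD, cut at about 14% in these data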;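 further: plate controls were DMSO wells with RBBP9 for no effect and wells lacking RBBP9 protein for full effect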
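system = RBBP9 protein | input = RBBP9 at 2.5 µM in dispensed solution, before mixing | measured by = fluorescence polarization (mP), excitation 525 nm, emission 598 nm | incubation = enzyme-compound preincubation 30 min, then probe labeling 45 min, 25 °C | buffer or medium = Tris-NaCl-Pluronic buffer, pH 8.0 | compound = single dose 7.94 µM | also added = FP-Rh probe, 375 nM dispensing solution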
EBV gp42 block – inhibitors of Epstein-Barr virus glycoprotein 42; Fluorescence polarization binding assay, mP read-out; inhibition, % (tested at 21.74 µM); hit rate 0.42% among 220,000; AID 1085; in the data active means inhibition above about 50%
Target sequence (Q1HVG2 whole entry, looked up): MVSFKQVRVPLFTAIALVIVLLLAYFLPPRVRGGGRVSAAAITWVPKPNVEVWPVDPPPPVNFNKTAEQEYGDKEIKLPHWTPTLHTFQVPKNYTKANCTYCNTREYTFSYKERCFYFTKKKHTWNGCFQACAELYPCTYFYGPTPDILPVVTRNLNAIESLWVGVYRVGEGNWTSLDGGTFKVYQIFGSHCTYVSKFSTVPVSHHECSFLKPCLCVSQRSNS
p97 inhibitor – inhibitors of human p97 ATPase | P55072 | recombinant p97 ATPase, Kinase-Glo ATP luminescence, 3 h | inhibition, % at 8 µM | hit rate 0.42% among 220,000 | AID 1481; in the data active means inhibition above about 15%;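 further: 0% = DMSO vehicle and 100% = wells lacking enzyme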
Target sequence (P55072 whole entry, looked up): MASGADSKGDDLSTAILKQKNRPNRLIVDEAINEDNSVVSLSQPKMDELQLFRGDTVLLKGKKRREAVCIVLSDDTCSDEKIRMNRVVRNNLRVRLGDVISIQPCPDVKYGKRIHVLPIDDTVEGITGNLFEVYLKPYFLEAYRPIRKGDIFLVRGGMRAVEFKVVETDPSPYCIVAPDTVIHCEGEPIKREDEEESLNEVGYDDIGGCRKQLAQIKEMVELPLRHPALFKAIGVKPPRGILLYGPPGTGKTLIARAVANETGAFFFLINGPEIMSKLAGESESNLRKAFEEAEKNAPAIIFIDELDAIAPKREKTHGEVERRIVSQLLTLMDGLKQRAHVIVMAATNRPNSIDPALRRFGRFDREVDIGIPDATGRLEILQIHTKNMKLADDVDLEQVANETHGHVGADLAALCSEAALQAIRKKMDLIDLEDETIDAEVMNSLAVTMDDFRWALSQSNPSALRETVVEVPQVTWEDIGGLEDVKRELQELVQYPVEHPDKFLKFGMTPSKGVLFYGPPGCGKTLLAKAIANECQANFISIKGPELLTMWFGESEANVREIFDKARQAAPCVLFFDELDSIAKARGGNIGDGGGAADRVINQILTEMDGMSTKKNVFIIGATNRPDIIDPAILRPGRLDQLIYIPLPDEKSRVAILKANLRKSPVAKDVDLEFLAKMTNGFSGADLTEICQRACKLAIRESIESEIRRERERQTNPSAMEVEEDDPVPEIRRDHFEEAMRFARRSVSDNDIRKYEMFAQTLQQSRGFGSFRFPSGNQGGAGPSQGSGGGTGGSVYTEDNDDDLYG
Tb hexokinase – T. brucei hexokinase 1 inhibition; AID 1430; hit rate 0.11% among 220,000; inhibition, % at 10 µM; recombinant TbHK1, G6PDH-coupled NADH A340;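 active means inhibition of 50% or more in the single-dose primary screen; inactive means inhibition below 50%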
m-calpain inh – blocks pig calpain II enzyme activity; purified calpain II, fluorogenic peptide substrate, 30 min; inhibition, % at 16 µM; hit rate 0.37% among 220,000; AID 1236;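 active means inhibition above about 50%, limit read from the data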
Furin inh – human furin inhibition | hit rate 0.061% among 220,000 | purified furin, fluorogenic substrate cleavage | P09958 | inhibition, % at 30 µM; in the data active means inhibition above about 25%; further: inactives centre near -15
NCF1 inh – inhibitors of human p47phox binding. P14598. p47phox/p22phox peptide binding, fluorescence polarization, 2 h. inhibition, % at 24.7 µM. hit rate 0.53% among 220,000;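 active means inhibition above about 30%, limit read from the data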;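 further: 0% = p47phox with labelled peptide and 100% = labelled peptide alone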
Active calls of the source: *; i = inactive; [ ] = dose if it differs, or a comment.

SMILES	RBBP9 inh	EBV gp42 block	p97 inhibitor	Tb hexokinase	m-calpain inh	Furin inh	NCF1 inh
O=C(CCSc1ccc(Cl)cc1)N1CCCCCC1	-7	-7	-2	-3	22	-16[20 µM]	-13
COc1cc(C2C(C#N)=C(N)Oc3cc(O)ccc32)cc(OC)c1OC (configuration not stated)	-3	-9	1	1	27	-17[20 µM]	-2
CC(=O)Nc1ccc(NC(=O)CSc2nnc(-c3ccco3)n2Cc2ccco2)cc1	-10	3	3	-2	-1	-21[20 µM]	-6
Cc1ccc(C(=O)Nc2nccc(-c3cccs3)n2)cc1	-8	-13	-2	-16	-13	-13[20 µM]	-15
O=C(/C=C/c1ccccc1Cl)NC(=S)Nc1ccccc1C(=O)NC1CCCCC1	-11	-19	2	1	22	-21[20 µM]	-21
N/C(=N\c1nc2c(c(=O)[nH]1)CCC2)Nc1ccccc1C(F)(F)F	-8	-11	-2	-6	10	-10[20 µM]	-6
CN1CCN(C(=O)C(C(=O)c2ccc(F)cc2)n2ccccc2=O)CC1 (configuration not stated)	4	0	-1	-4	-4	-16[20 µM]	-11
O=C(N/N=C/c1ccncc1)c1nc(-c2ccccc2)n2c1CCCCC2	-8	-30	1	-3	0	10[20 µM]	9
COc1ccc2c(c1)[nH]c1c(N3CCN(Cc4ccc5c(c4)OCO5)CC3)ncnc12	-2	-6	7	-20	-3	-14	-10
O=C(NCC(c1cccnc1)N1CCOCC1)Nc1ccccc1 (configuration not stated)	-2	-7	2	-14	10	-19	-11
Cc1[nH]c2ccccc2c1C(=O)/C=C/c1ccccc1	1	-17	12	-5	-56	-16[20 µM]	-11
COc1ccc(NC(=O)c2c(C(F)(F)F)nn(C)c2SCc2ccccc2)cc1	6	-7	-1	-4	5	-16[20 µM]	4
COc1cccc(OCC(=O)NC2CCCCC2)c1	-10	1	2	1	14	-16	5
O=C1Nc2ccccc2C(=O)C1(Cl)Cc1ccccc1 (configuration not stated)	0	-12	-7	-5	-53	-19[20 µM]	6
Cc1cccc(-n2c(=O)c3c(n4cnnc24)-c2ccccc2CC32CCCCC2)c1	6	-3	2	-10	-32	-10[20 µM]	-20
Cc1cc(=O)[nH]c(-n2nc(C)cc2C)n1	-3	-7	2	2	-4	-26	-8
Nc1ccc(Cc2ccc(N)c(C(=O)O)c2)cc1C(=O)O	-6	-11	5	-10	-35	-9[20 µM]	-8
CC1(C)CC(=O)C2=C(C1)OC(N)=C(C#N)C2c1ccccc1OC(=O)N1CCOCC1 (configuration not stated)	1	-15	2	-6	-1	-7	4
Cc1nnc(SCCCn2c(N3CCN(c4ccccc4)CC3)nc3c2c(=O)[nH]c(=O)n3C)s1	-10	-14	-6	-1	18	-14	4
CCOc1ccc(C(=O)NN2C(=O)C3C4C=CC(O4)C3C2=O)cc1 (configuration not stated)	-6	-13	-5	0	-16	-17	-18
COc1ccc(C2(C)NC(=O)N(CC(=O)Nc3ccc4c(c3)OCO4)C2=O)cc1OC (configuration not stated)	1	-8	4	-3	-1	10[20 µM]	-14
Cc1cccc(C)c1NC(=O)C(=O)NCc1ccccn1	-5	-16	7	0	21	11	-12
O=S(=O)(/N=C(\Sc1ccc(Cl)cc1)c1ccccc1)c1ccccc1	-2	-18	4	0	2	-13[20 µM]	-10
O=C(c1ccccc1)c1nn(-c2cccc(Cl)c2)c2nc(-c3ccccc3)cc(=O)n12	-5	-6	-4	-5	8	0[20 µM]	-2
CCOc1ccc(C(=O)N/N=C(\c2ccccc2)c2ccccn2)cc1	-2	-30	-8	0	12	13[20 µM]	-4
COc1ccc(NC(=O)CCC(=O)c2ccc(-c3ccccc3)cc2)cc1	-1	-39	5	-9	-5	-6	-25
COc1cccc(-n2c(C)n[nH]c2=O)c1	-5	-23	2	-3	4	-10[20 µM]	-10
CC1C(=NO)C(C)C(c2ccc(N(C)C)cc2)NC1c1ccc(N(C)C)cc1 (configuration not stated)	4	-17	2	6	1	-16	-7
COc1ccc(OC2C(=O)N(CCc3ccc(OC)c(OC)c3)C2c2ccc3c(c2)OCO3)cc1 (configuration not stated)	-3	-10	-4	-6	32	-14[20 µM]	-4
CCc1ccc2nc(Nc3nc(COC)cc(=O)[nH]3)nc(C)c2c1	-7	-9	-3	-7	-19	-10[20 µM]	-21
O=C(C1CCCCN1S(=O)(=O)c1ccccc1)N1CCCCC1 (configuration not stated)	7	-18	-1	-2	0	9[20 µM]	-9
O=C(N/N=C/c1ccccn1)c1cc(-c2ccc(Cl)cc2)nc2ccccc12	-11	-5	2	2	-38	-20	-5
C[C@H](NC(=O)Cn1cncn1)c1ccccc1	-6	-22	5	-4	-19	-14[20 µM]	-14
COc1ccc(Br)cc1C(=O)Nc1ccc(Cc2ccncc2)cc1	-7	-5	-1	-5	-8	-22[20 µM]	-10
CCc1cc(=O)oc2cc(OCC(=O)N3CCCc4ccccc43)ccc12	-10	-19	-4	-5	20	-5	-11
CN(NC(=O)NN)c1ncc(C(F)(F)F)cc1Cl	-11	-3	4	-1	-11	-21[20 µM]	-1
Cc1c(OCC(F)(F)F)ccnc1CSc1nc2ccccc2[nH]1	-3	-5	-1	2	-38	-3[20 µM]	-2
CC(NC(=O)C(=O)NN=C1CCCCCC1)c1ccccc1 (configuration not stated)	4	17	3	0	23	-20[20 µM]	-19
O=C(CCCNC(=O)/C(=C/c1ccccc1F)NC(=O)c1ccccc1)OCc1ccccc1	2	-18	2	-4	6	-7	2
O=C(O)C1C2C=CC(C2)C1C(=O)N1CCN(C/C=C/c2ccccc2)CC1 (configuration not stated)	-7	-15	-1	3	4	-16	-10

Single records (already shown).
Shown for O=C(O)C1C2C=CC(C2)C1C(=O)N1CCN(C/C=C/c2ccccc2)CC1 (configuration not stated) → RBBP9 inh: -7; EBV gp42 block: -15; p97 inhibitor: -1; Tb hexokinase: 3; m-calpain inh: 4; Furin inh: -16; NCF1 inh: -10
Shown for COc1ccc(OC2C(=O)N(CCc3ccc(OC)c(OC)c3)C2c2ccc3c(c2)OCO3)cc1 (configuration not stated) → RBBP9 inh: -3; EBV gp42 block: -10; p97 inhibitor: -4; Tb hexokinase: -6; m-calpain inh: 32; Furin inh: -14[20 µM]; NCF1 inh: -4

Remaining list, next part:
SMILES	RBBP9 inh	EBV gp42 block	p97 inhibitor	Tb hexokinase	m-calpain inh	Furin inh	NCF1 inh
COc1ccc(Oc2coc3cc(OC(=O)c4cccs4)ccc3c2=O)cc1	1	-16	4	0	-403	-24	5
COc1ccc2nc(C)cc(SCC(=O)Nc3c(C)cc(C)cc3C)c2c1	-6	-9	3	-10	-53	-11[20 µM]	23
C=CCn1ncc(OC)c(Cl)c1=O	-10	-13	-4	3	7	-8[20 µM]	-6
Cc1ccc(NC(CNS(=O)(=O)c2ccc(Cl)cc2)c2ccccc2)cc1 (configuration not stated)	3	-21	6	13	-46	-2	-3
CCCCCCCC(=O)NNC(=O)CCC(=O)O	-4	-2	-6	-1	16	-3[20 µM]	0
COc1ccc(C(=O)N/C(=C/c2cccs2)c2nc3ccccc3[nH]2)cc1OC	-3	1	0	-34	-12	2	-1
COc1ccc2oc(-c3ccc(C)c(NC(=O)CSc4ccc(Cl)cc4)c3)nc2c1	9	-22	3	-18	-331	-44[20 µM]	2
COCCN1CSC(=S)N(Cc2ccco2)C1	-10	-17	4	-6	-14	-23	-8
Cc1ccc(SCC(=O)N2c3ccccc3Sc3ccccc32)cc1	-12	-7	-10	15	13	-3[20 µM]	-7
COc1ccc2c(c1)-c1nc(NC(=O)c3cccs3)sc1CC2	-6	1	0	-8	-4	-5	-15
Cc1ccc(C)c(Nc2c([N+](=O)[O-])cc(C(=O)N3CC(=O)Nc4ccccc43)cc2[N+](=O)[O-])c1	-4	-2	4	-6	-88	-9[20 µM]	10
C/C(=N\Nc1nc(N)cc(Cl)n1)c1cccc([N+](=O)[O-])c1	6	-9	7	-4	-16	-12	-10
COc1ccc(C(=O)/C=C/Nc2ccc(NC(C)=O)cc2)cc1OC	-10	-8	0	-22	-3	-19[20 µM]	-15
COC(=O)CC1C(=O)NCCN1C(=O)Nc1ccc(Cl)cc1 (configuration not stated)	2	-10	2	5	-9	-4[20 µM]	-9
CCCc1cc(=O)oc2cc(OCC(=O)N3CCc4ccccc43)ccc12	-2	-13	-2	-2	-35	-13[20 µM]	1
Cc1ccc(-c2cnn(-c3cccc(C(F)(F)F)c3)c2N)cc1	-7	-2	-4	6	24	-10[20 µM]	-4
CCN1CCN(C(c2cccs2)C(C)NC(=O)c2cccnc2)CC1 (configuration not stated)	-8	-24	0	1	-13	-19	-17
Cc1nc2c(C)cccn2c1/C(O)=C1\C(=O)C(=O)N(CCN(C)C)C1c1ccncc1 (configuration not stated)	3	-9	1	-22	-3	-8	-8
CCCC(=O)N1CCN(S(=O)(=O)c2cc(Cl)ccc2OC)CC1	-4	-11	-3	-1	10	-13	0
CCOC(=O)c1ccc(N=C2S/C(=C\c3cc(C)n(-c4cccnc4)c3C)C(=O)N2C)cc1	0	-10	3	-15	-74	-1[20 µM]	-7
COc1ccccc1N/C(=N/S(=O)(=O)c1ccc(C)cc1)c1ccc(Cl)cc1	-6	11	-2	-7	23	-15[20 µM]	-14
O=C1Nc2ccc(F)cc2C12Nc1ccccc1-c1nnc(SCc3ccccc3Cl)nc1O2 (configuration not stated)	8	-25	4	1	-59	-12	39*
O=C(NC1CCCCC1)N1CCCC(c2nc(-c3cccs3)no2)C1 (configuration not stated)	-9	-4	-4	-3	-47	-22[20 µM]	-13
CCCCn1nc2cc(C(=O)NC[C@@H]3CCCO3)ccc2c1OCC	-5	-6	5	-3	i	-22[20 µM]	0
O=C(CC1CCCCC1)Nc1ncn[nH]1	-5	-4	1	-5	8	-9[20 µM]	4
Oc1ccccc1/C=N/n1c2ccccc2c2ccccc21	-8	-12	3	-3	5	-12[20 µM]	3
CCn1c(SCc2c(Cl)cccc2Cl)nnc1-c1nn(-c2ccccc2)ccc1=O	-6	6	-6	-13	23	-9[20 µM]	-4
Cc1ccccc1CS(=O)(=O)Cc1ccc(C(=O)NCCCN2CCOCC2)o1	-11	3	-1	-2	-26	-14[20 µM]	-5
CCC(C)[C@H](NC(=O)OC(C)(C)C)c1nnc(SCc2c(C)[nH]c(=O)[nH]c2=O)o1 (some centres not stated)	4	-6	-4	2	-17	-22[20 µM]	-14
CCc1cccc2c(C=C(C#N)C#N)cn(CC(=O)N3CCCCCC3)c12	-6	10	6	-1	-100	-17[20 µM]	-12
Cc1cccc(C)c1NC(=O)CSc1nnc(-c2ccccc2)n1Cc1ccc2c(c1)OCO2	3	-13	-1	0	12	-14[20 µM]	-7
COc1ccc(OC)c(NC(=O)CSc2nc3ccccc3cc2Cc2ccccc2)c1	2	-6	2	-12	-11	-11[20 µM]	-11
Cc1ccc2c(c1)NC(=O)c1cccnc1N2	-2	-13	1	1	11	-15[20 µM]	-22
CC(=O)NNc1nc2ccccc2s1	3	-13	3	3	-21	3[20 µM]	-13
CCOc1ccccc1C(=O)N1CCOCC1	-4	3	2	-7	3	-22[20 µM]	-9
COc1ccc(C(=O)Nc2ccc(NC(=O)c3cnccn3)cn2)cc1	2	-19	0	2	-48	-11[20 µM]	-42
Cc1cc(C(F)F)n2ncc(C(=O)O)c2n1	-1	-26	3	-7	-2	-3[20 µM]	2
O=C(COC(=O)C1CCN(S(=O)(=O)c2cc([N+](=O)[O-])ccc2Cl)CC1)Nc1ncc(Cl)cc1Cl	-4	-10	8	6	17	-17[20 µM]	-17
CC(=O)c1c(C)[nH]c(C(=O)COc2cc(C)cc(C)c2)c1C	-6	-17	-2	2	16	-23[20 µM]	-5
Cc1nnsc1NC(=O)OCc1ccc(C(F)(F)F)cc1	2	-5	-4	5	-4	-4	-6
Cc1ccc(-c2cc(N)n(-c3ccccc3)n2)cc1	-5	-26	-7	-2	14	-20[20 µM]	-5

Ordered by count of non-hydrogen atoms (low to high): part of the list above
SMILES	RBBP9 inh	EBV gp42 block	p97 inhibitor	Tb hexokinase	m-calpain inh	Furin inh	NCF1 inh
CC(=O)NNc1nc2ccccc2s1	3	-13	3	3	-21	3[20 µM]	-13
Cc1ccc2c(c1)NC(=O)c1cccnc1N2	-2	-13	1	1	11	-15[20 µM]	-22
CCCCn1nc2cc(C(=O)NC[C@@H]3CCCO3)ccc2c1OCC	-5	-6	5	-3	i	-22[20 µM]	0
COc1ccccc1N/C(=N/S(=O)(=O)c1ccc(C)cc1)c1ccc(Cl)cc1	-6	11	-2	-7	23	-15[20 µM]	-14
CCn1c(SCc2c(Cl)cccc2Cl)nnc1-c1nn(-c2ccccc2)ccc1=O	-6	6	-6	-13	23	-9[20 µM]	-4
COc1ccc(OC)c(NC(=O)CSc2nc3ccccc3cc2Cc2ccccc2)c1	2	-6	2	-12	-11	-11[20 µM]	-11
Cc1cccc(C)c1NC(=O)CSc1nnc(-c2ccccc2)n1Cc1ccc2c(c1)OCO2	3	-13	-1	0	12	-14[20 µM]	-7

Source: PubChem

An excerpt; rates above refer to the full screens.
